LANA-H2B inh – blocks KSHV LANA binding to histone H2A/H2B; Q9QR71; inhibition, % (concentration not given with the values); 320,000 tested, 0.6% active; AID 2629; cell-free LANA-H2A/H2B peptide, fluorescence polarization; in the data active = inhibition mostly above about 10%, no sharp cut-off; inactive = mostly below about 6.7%;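 also: stock transfer was 7.5 nL into about 10 µL; 0% = median of vehicle wells and 100% = median of positive control wells; one replicate is shown; the record names a cut of 25% in any replicate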
T cruzi inh – T. cruzi replication inhibition | T. cruzi beta-gal in NIH3T3, luminescence, 90 h | inhibition, % (no concentration beside the values) | 300,000 tested, 1.4% active | AID 1885;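 active = mean inhibition across valid replicates above about 55%, limit read from the data; inconclusive = mean below that limit but half or more replicates reach it; inactive = mean below it, under half of replicates reach it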;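 also: signal also drops with host cell toxicity which is not excluded here; 0% = plate median of DMSO wells and 100% = zero luminescence signal; higher percent means less beta-gal luminescence so fewer parasites; stock transfer was 50 nL into about 50 µL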
RanGTP-Imp inh – inhibitors of RanGTP-importin-beta interaction, primary screen, biochemical, FRET, CFP-Ran, YFP-importin-beta, homogeneous; 300,000 tested, 1.1% active; cell-free CFP-Ran/YFP-importin-beta FRET ratio; inhibition, % (test concentration not listed);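 active = most replicates above 15%; inconclusive = exactly half above 15%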;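 also: 0% = DMSO wells and 100% = Ran loaded with GDP instead of GTP; wells of about 40 µL received 100 nL stock; the first replicate is given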
MLL AF4-AF9 inh – inhibitors of human MLL-AF4/AF9 interaction; 350,000 tested, 0.47% active; P42568; AlphaScreen, biotin-AF4 peptide binding to FLAG-AF9; inhibition, % at 10 µM;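 active = every replicate reaching a set inhibition limit, whatever the replicate mean, cut at about 25% in these data; inconclusive = mean inhibition reaches that limit but some replicates miss it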;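 also: 0% = plate neutral control median and 100% = total signal loss; the record names both 10 and 1 µM as test concentration; the first replicate is given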
Target sequence (P42568 whole entry, looked up): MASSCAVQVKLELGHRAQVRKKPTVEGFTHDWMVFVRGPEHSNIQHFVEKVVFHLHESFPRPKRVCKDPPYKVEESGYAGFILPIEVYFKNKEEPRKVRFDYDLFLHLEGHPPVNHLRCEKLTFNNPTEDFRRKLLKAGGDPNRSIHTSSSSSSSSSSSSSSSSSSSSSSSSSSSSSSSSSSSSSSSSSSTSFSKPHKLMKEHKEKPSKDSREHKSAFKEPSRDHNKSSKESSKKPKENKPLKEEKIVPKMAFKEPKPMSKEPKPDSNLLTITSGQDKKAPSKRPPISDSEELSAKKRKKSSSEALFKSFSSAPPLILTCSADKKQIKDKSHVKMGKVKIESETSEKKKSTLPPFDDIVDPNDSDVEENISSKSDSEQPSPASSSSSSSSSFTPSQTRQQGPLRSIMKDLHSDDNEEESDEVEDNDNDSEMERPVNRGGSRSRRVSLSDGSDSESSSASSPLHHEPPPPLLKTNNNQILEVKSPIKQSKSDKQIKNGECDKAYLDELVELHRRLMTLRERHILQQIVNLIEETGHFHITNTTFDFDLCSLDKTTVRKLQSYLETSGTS
A1 inh – inhibitors of the anti-apoptotic protein A1, read as caspase activation; 330,000 tested, 0.066% active; caspase activation, % (no concentration beside the values); MEF A1-2A-BIM cells, Caspase-Glo 3/7 luminescence, 3 h; percent of clofoctol response, vehicle zero;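 active = over half of replicate activation scores above 10%, or exactly half above 10 with the replicate mean above 10; inconclusive = replicate mean below 10 yet half the replicates above 10; inactive = over half of replicates below 10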;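 also: wells of about 30 µL received 50 nL stock; many hits fall short of the cut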
Beta apoptosis – beta cell apoptosis inhibition | INS-1E cytokine-induced death, ATP luminescence, 48 h; percent of positive-control rescue, neutral wells zero | protection from apoptosis, % (no concentration beside the values) | 300,000 tested, 0.8% active | AID 435005;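 active = all replicates at 75% or more, or half of them and the mean; inconclusive = half reach 75% but not the mean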;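 also: 0% = cytokine-treated negative control wells and 100% = positive control rescue; higher means more ATP so stronger rescue from cytokine killing; wells of about 40 µL received 100 nL stock; the first replicate is given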
Calb FLC – affects C. albicans growth with fluconazole; C. albicans CaCi-2 (fluconazole-resistant clinical isolate) + fluconazole, Alamar Blue growth, 48 h; 300,000 tested, 0.57% active; growth inhibition, % (concentration not given with the values);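 active = most replicates above 75%; inconclusive = exactly half above 75%; inactive = most below 75%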;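 also: all wells also contain fluconazole at 8 µg/ml as a sub-toxic cotreatment; 0% = median of DMSO wells and 100% = median of geldanamycin control wells; wells of about 8 µL received 7.5 nL stock; the first replicate is given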
Vif TR-FRET – HIV-1 Vif–A3G interaction blockers – biochemical, TR-FRET, GST-Vif 1-94, biotin-A3G peptide, dose response retest, primary screen (AID 1117319) | TR-FRET GST-Vif / biotin-A3G peptide binding; higher % means a stronger effect; test concentration not given here; strong numbers were not always called active | inhibition, %; hits with a dose series show IC50 in µM | 260,000 tested, 0.57% active;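 active = above the screen mean plus three standard deviations and confirmed in dose response; inconclusive = results disagree or hit not tested in dose response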;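 also: Vif residues 1-94 fused to GST binding biotinylated APOBEC3G peptide 110-148; 0% = full assay without inhibitor and 100% = GST in place of GST-Vif; retest series ran down from 100 µM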
Numbers without * were called inactive; u = inconclusive; x = not tested or not shown; & = joins results of further samples. Rows are unselected. Share with any hit: about 4.3%.

SMILES	LANA-H2B inh	T cruzi inh	RanGTP-Imp inh	MLL AF4-AF9 inh	A1 inh	Beta apoptosis	Calb FLC	Vif TR-FRET
CC1CC1C(=O)OCC(=O)Nc1ccc(Cl)cn1 (stereo not given)	0.1	x	x	-1.8	-0.2	-3	x	x
CN(C(=S)NC1CCCCC1)C1(c2ccccc2Cl)CCCCC1=O (stereo not given)	2.1	35	-5.0	x	1.4	13	1	8%
O=C(COCc1nc2ccccc2c(=O)[nH]1)NC1CCCC1	0.6	-2	6.8	x	0.7	0	-5	-2%
O=C(CCn1cnnn1)Nc1ccccc1	-1.7	-8	-0.5	0.5	0.1	-6	-4	1%
CCOC(=O)C1CCCN(C(=O)c2ccccc2NS(=O)(=O)c2ccc(F)cc2)C1 (stereo not given)	7.2	x	x	-4.5	-0.1	-4	x	0%
Cn1c(=O)c2c(nc(Br)n2CCCc2ccccc2)n(C)c1=O	-0.6	0	2.6	x	-1.2	-1	9	-5%
COc1ccc(CNC(=O)COC(=O)c2ccc(C)c(S(=O)(=O)N3CCOCC3)c2)cc1	3.6	x	x	-2.8	-1.4	-4	x	x
COc1ccccc1C(=O)NC(=S)N1CCCc2ccccc21	-7.0	30	-0.4	-65	0.2	21	0	9%
CCCCN(C(=O)COC(=O)c1ccc(C=O)cc1)c1c(N)n(CCC)c(=O)[nH]c1=O	1.5	x	x	2.3	1.5	1	x	-6%
O=C(COc1ccccc1-c1ccccc1)N/N=C/c1ccccn1	-5.9	-3	-1.7	3.5	-0.5	6	5	-8%
COC(CNC(=O)CNC(=S)N(CCCN1CCOCC1)Cc1cccs1)OC	-10	-3	-2.4	-1.9	0.9	8	-3	u
O=S(=O)(N/N=C/c1ccc(N2CCOCC2)cc1)c1ccccc1	-0.7	-8	4.7	-1.2	-0.4	0	-3	3%
CCOc1ccc(N(CC(=O)NC2CCCCC2)C(=O)CNC(=O)c2cccs2)cc1	1.6	12	-0.4	-0.6	0.9	5	4	2%
Cc1ccc(C2(c3noc(CN(C)Cc4cccnc4)n3)CCCC2)cc1	-1.1	13	7.5	x	1.4	-2	-9	4%
COc1ccc(C)cc1N(CC(=O)N1CCCCCC1)S(=O)(=O)c1ccc(C)cc1	1.6	19	4.8	1.6	2.0	-5	-3	x
CCCc1ccc(OCC(O)CN2CCN(c3ccccn3)CC2)cc1 (stereo not given)	-1.8	19	2.8	3.6	-1.3	x	-1	4%
Cc1ccc(NC(=O)CCN2CC(C)OC(C)C2)cc1 (stereo not given)	-2.2	-12	-1.8	3.9	-0.5	-3	3	x
CC(=O)Cc1nsc(NC(=O)C2Cc3ccccc3C(=O)O2)n1 (stereo not given)	1.8	-19	0.3	-3.9	-0.7	-1	0	-3%
O=C(O)C1C2C=CC(C2)C1C(=O)NCc1ccoc1 (stereo not given)	2.5	-13	2.3	0.7	0.3	-9	18	5%
COc1ccc(NC(=O)c2nc[nH]c2C(=O)N[C@H](C)c2ccccc2)cc1	1.3	17	-1.1	6.7	1.7	6	11	6%
COc1ccc(NC(=O)c2oc3ccccc3c2NC(=O)C2CC2)cc1OC	1.8	-1	1.5	8.1	0.1	8	-12	-14%
CCC(C)c1ccccc1N1CC(C(=O)NCCC2=CCCCC2)CC1=O (stereo not given)	1.1	x	x	-1.7	-0.9	4	x	-3%
Clc1ccc(-c2nnc(CSc3nnc(-c4cccs4)n3Cc3ccccc3)o2)cc1	-0.1	11	11	-0.6	0.6	57	27	5%
COC(=O)COc1cccc2c(=O)n(CC(=O)N3CCCc4ccccc43)ccc12	-2.8	-9	9.4	-7.5	-1.4	-4	4	u
CCOC(=O)N1CCN(C(=O)C2CCN(S(=O)(=O)c3ccc(OCC)cc3)CC2)CC1	-3.7	4	u	0.9	0.7	-1	5	x
Cc1ccc(-n2nc3c(=O)n(CC(=O)c4ccc(F)cc4)nc(C)c3c2C)cc1	-0.4	11	0.3	x	1.5	-6	25	5%
COc1ccc(-n2c(=O)c3ccccc3n(Cc3ccc(F)cc3)c2=O)cc1OC	-0.7	4	-2.8	x	-0.3	-1	-12	-5%
COc1ccc(N2CCN(C(=O)C3CC(O)CN3S(=O)(=O)c3ccc([N+](=O)[O-])cc3)CC2)cc1 (stereo not given)	2.3	50	0.0	3.6	0.7	4	7	4%
Cc1ccc(C)c(OCCC(=O)OCC(=O)Nc2ccc(C)c(S(=O)(=O)N3CCCCC3)c2)c1	-3.2	-8	1.4	-0.7	-0.4	1	-10	3%
CC(C)(C)c1ccc(C(=O)NNC(=S)NCC2CCCO2)cc1 (stereo not given)	4.9	-10	-0.1	x	0.5	3	-4	-7%
Cc1ccc(-n2c(Cc3cccn3C)nnc2SCC(=O)NC2CCCCC2)cc1	-2.8	8	-2.9	x	1.0	-7	-1	30%
COc1ccc(/C(O)=C2/C(=O)C(=O)N(c3ncccn3)C2c2ccc(C(C)(C)C)cc2)cc1 (stereo not given)	2.8	-21	u	0.7	-0.7	2	15	-4%
COc1ccc(-c2csc(NC(=O)CSCC(=O)Nc3cc(C)on3)n2)cc1	1.8	x	x	-1.4	-0.3	-2	x	x
O=c1cc(CO)occ1OCc1ccccc1	3.8	-3	-2.8	x	-1.0	x	-20	0%
CCOC(=O)[C@H]1[C@H]2COc3ccc(Cl)cc3[C@@H]2N2C(=O)c3cc(F)c(F)cc3NC(=O)[C@@]12C	1.4	x	x	0.2	0.0	3	x	x
CC(C)Oc1ccc(CCC(=O)NNC(=S)NCc2ccccc2)cc1	4.9	2	1.2	-37	0.5	-10	2	4%
O=C1CC(c2ccc(F)cc2)SC(N(c2ccccc2)c2ccccc2)=N1 (stereo not given)	2.5	25	u	x	-0.2	-3	-6	1%
CCN1CCN(c2ccc(S(=O)(=O)N3CCOCC3)cc2NC(=O)CCSC)CC1	-0.2	x	x	6.3	2.2	-1	x	-13%
Oc1c(C=C2N=c3ccccc3=N2)sc(=S)n1-c1ccc(F)cc1	1.0&4.1	-56&7	-3.3&-0.8	x	0.6&0.1	3&-9	-16&-18	5%&-2%
C=CCNC(=O)C1CC=CCC1C(=O)O (stereo not given)	4.4	-17	-2.8	x	1.0	-3	-5	3%
Clc1ccc(-c2cn3c(n2)SCC3)cc1	0.4	-11	u	5.1	0.3	-5	-19	15%
CON(C)S(=O)(=O)c1cccc(C(=O)Oc2ccc(N(C)S(=O)(=O)c3ccccc3)cc2)c1	-5.7	-1	0.3	-2.0	-0.4	-2	-4	-9%
S=C(NCCc1ccccc1)N1CCOCC1	-1.1	-19	5.7	-2.9	0.9	-5	-4	-1%
COc1ccc(C2Nc3ccccc3NC3=C2C(=O)CC(C)(C)C3)c(OC)c1OC (stereo not given)	-3.0	-9	3.7	-0.9	-0.3	-4	9	x
Cn1c(/C(C#N)=C(\O)c2ccc(Cl)s2)nc2ccccc21	2.2	-43	6.9	-1.2	0.1	6	-2	x
Cn1c(=O)c(-c2ccccc2)nc2ccccc21	-3.1	-13	1.9	x	0.3	1	7	0%
COC(=O)/C=C\C(=O)Nc1cccc([N+](=O)[O-])c1	15	13	-1.8	5.4	0.1	-20	7	u
O=C(C1CC(=O)N(C2CCCC2)C1)N1CCC(Cc2ccccc2)CC1 (stereo not given)	0.6	-4	u	-26	u	-2	2	2%
CN(C(=O)COC(=O)CN1C(=O)C2CC=CCC2C1=O)c1ccccc1 (stereo not given)	3.9	-7	5.9	-0.5	1.5	0	-4	-7%
CC(C)(C)C(=O)NN=C1CCC(c2ccccc2)CC1 (stereo not given)	2.6	3	3.8	0.0	0.3	-3	14	x
O=c1c(-c2ccc(O)cc2)coc2cc(O)ccc12	-0.6	-6	1.5	2.0	-2.6	0	x	x
O=C(O)c1ccccc1C(=O)N1CCN(c2ncccn2)CC1	2.2	-3	2.8	-6.3	-1.1	-2	5	7%
Cc1ccccc1-c1nc(SCc2cccnc2)c2c(=O)n(C)c(=O)n(C)c2n1	-0.3	29	u	0.8	-0.1	2	-8	x
Cc1ccc(-n2c(SCC(=O)Nc3cc(C)on3)nc3ccccc3c2=O)cc1	-4.1	4	4.5	x	1.6	0	-2	u
COc1ccc(Cn2nnc3c(=O)[nH]c(C(=O)NCCc4ccc(F)cc4)nc32)cc1OC	5.1	-3	2.5	5.6	0.3	4	5	5%
O=C(C1CCCN(S(=O)(=O)c2ccccc2)C1)N1CCN(c2ccccc2)CC1 (stereo not given)	-1.3	10	3.8	1.5	0.7	7	-9	x
COc1cc(NC(=O)c2ccc(Br)o2)ccc1NC(=O)C(C)C	9.1	6	2.5	x	0.8	4	0	13%
CCOC(=O)/C(C#N)=C/c1cn(CCOc2ccccc2)c2ccccc12	1.8	13	2.9	7.5	-0.1	9	-8	-3%
Cc1ccccc1NC(=O)NC1(C(=O)NCCCN2CCOCC2)CCCCC1	-0.1	2	-4.1	x	0.4	1	-5	6%
CCN(CCn1cccn1)C(=O)CC1C(=O)NCCN1Cc1cccc(OC)c1OC (stereo not given)	-0.9	1	-0.3	-13	-0.2	1	-6	x

(continued)
SMILES	LANA-H2B inh	T cruzi inh	RanGTP-Imp inh	MLL AF4-AF9 inh	A1 inh	Beta apoptosis	Calb FLC	Vif TR-FRET
COc1c2occc2c(OC)c2c(=O)cc(C(F)(F)F)oc12	-0.2	-4	1.7	x	0.1	-1	0	6%
CC(C)C(=O)N1CCN(c2ccc(NC(=O)c3ccc([N+](=O)[O-])o3)cc2)CC1	2.6	50	-2.5	3.1	0.8	3	u	x
COC(=O)c1ccc(C2C(C(=O)c3ccc(C)o3)=C(O)C(=O)N2c2cc(C)on2)cc1 (stereo not given)	-3.0	-9	0.3	2.8	-0.8	-8	15	-4%
COc1ccc(CCN2C(=O)c3cccc4cccc(c34)C2=O)cc1OC	-2.4	-12	0.6	x	0.6	7	-15	-3%
O=C(CSc1nnc(CNC(=O)c2cccs2)o1)NC1CCCCC1	-4.1	-14	-0.8	x	1.0	0	0	-2%
COc1ccc(NC(=O)CSc2n[nH]c(-c3ccccc3)n2)cc1S(N)(=O)=O	-1.2	x	x	2.9	0.5	0	x	-4%
COc1ccc(-n2c(SCC(=O)Nc3ccc([N+](=O)[O-])cc3OC)nc3ccccc32)cc1	x	11	2.4	x	0.3	-3	-1	x
CC(C)(C)c1ccc(OCC(=O)N(Cc2cccs2)C2CCS(=O)(=O)C2)cc1 (stereo not given)	2.0	-3	-2.0	5.7	x	-5	-1	x
O=C(NC1CCCCCC1)c1cc(=O)[nH]c2ccc(S(=O)(=O)N3CCOCC3)cc12	4.0	-1	5.7	-2.0	-0.4	-3	-26	-6%
COc1ccc(-c2cn3cccnc3n2)cc1NC(=O)C(C)Oc1ccccc1 (stereo not given)	-1.3	5	-0.4	1.9	-0.3	-8	40	x
CN(CC(=O)Nc1cccc(F)c1)C(=O)CCCn1c(=O)oc2ccccc21	-4.1	-8	3.6	-1.0	2.5	2	x	0%
O=C(COC(=O)c1ccccc1C(=O)c1ccccc1)Nc1cccc([N+](=O)[O-])c1	-1.6	3	-2.0	0.3	0.0	-4	u	-2%
Cc1ccc(Cl)cc1NC(=O)CSC(N)=O	2.1	7	-2.8	x	-0.9	-13	2	3%

High-throughput results from PubChem.
